PINK1 modulator – A Quantitative High throughput Screen to Identify Chemical Modulators of PINK1 Expression. PINK1 immunofluorescence, high-content cytometry, 24 h. Potency, µM (doses to about 76.6 µM), inactives show at the highest dose activation (PINK1 increase), most hits filed as activators. 410,000 compounds, 0.2% hits. AID 624263, 2012; active = well fitted activation curve with a large enough effect; inconclusive = small, poorly fitted or top-dose-only effect; inactive = flat fitted curve, though single readings scatter; cell line not stated here;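 note: potency is the fitted concentration of half-maximal effect; % of control where 0% means no effect; nearly all actives have a fitted effect of over 65% in size; a mitochondrial uncoupler was the plate control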
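PINK1 protein, normally rapidly degraded, was detected by immunofluorescence after 24 hour compound treatment of a stable cell line. Titration data (5 concentrations) came from laser-scanning cytometry, with CCCP-treated wells as controls.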
Six1-Eya2 blk – qHTS Assay for Inhibitors of the Six1/Eya2 Interaction; activity change, % (concentration not given with the values); AlphaScreen GST-Six1/His-Eya2 binding, biochemical; hits give low values; control for the full effect not named in the record; Homeobox protein SIX1 (Homo sapiens) + Protein phosphatase EYA2 (Homo sapiens), …; 360,000 compounds, 0.56% hits; in the data active = activity change below about -65%; inconclusive = about -30% to -65%; inactive = above about -30%; note: % is set by controls: 0 for no effect and ±100 for the full control effect
Target sequence (O00167 whole entry, looked up): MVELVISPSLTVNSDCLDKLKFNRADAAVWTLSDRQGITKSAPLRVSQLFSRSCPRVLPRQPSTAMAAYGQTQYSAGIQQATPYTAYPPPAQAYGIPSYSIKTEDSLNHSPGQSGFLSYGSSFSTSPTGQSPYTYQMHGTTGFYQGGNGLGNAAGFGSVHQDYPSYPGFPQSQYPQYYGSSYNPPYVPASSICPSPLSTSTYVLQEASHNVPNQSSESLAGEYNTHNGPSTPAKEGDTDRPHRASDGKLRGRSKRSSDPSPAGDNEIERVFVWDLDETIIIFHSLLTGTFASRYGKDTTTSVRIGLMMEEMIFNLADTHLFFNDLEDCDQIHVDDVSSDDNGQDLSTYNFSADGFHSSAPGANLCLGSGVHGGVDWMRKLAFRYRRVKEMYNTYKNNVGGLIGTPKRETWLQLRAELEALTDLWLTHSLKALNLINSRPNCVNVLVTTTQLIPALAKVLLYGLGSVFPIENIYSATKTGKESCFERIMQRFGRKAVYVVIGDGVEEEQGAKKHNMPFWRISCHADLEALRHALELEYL
Target sequence (Q15475 whole entry, looked up): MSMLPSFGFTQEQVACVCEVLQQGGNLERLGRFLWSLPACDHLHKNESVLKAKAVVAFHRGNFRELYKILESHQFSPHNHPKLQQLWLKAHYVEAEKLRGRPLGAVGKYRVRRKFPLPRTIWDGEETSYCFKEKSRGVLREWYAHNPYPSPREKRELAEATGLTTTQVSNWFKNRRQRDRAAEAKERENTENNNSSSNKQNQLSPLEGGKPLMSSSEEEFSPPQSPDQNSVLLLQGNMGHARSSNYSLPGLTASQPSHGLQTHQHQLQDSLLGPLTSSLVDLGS
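Homogeneous AlphaScreen proximity assay pairing GST-Six1 with His-tagged Eya2 (added as 5X mix: 250 nM and 500 nM) in 50 mM Tris pH 8.0, 300 mM NaCl, 1 mM TCEP. Glutathione donor and nickel acceptor beads; 1 h, 37 °C, dark.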
TRPML1 ag – qHTS for Agonists of the Human Mucolipin Transient Receptor Potential 1 (TRPML1); Mucolipin-1 (Homo sapiens), Q9GZU1; TRPML1-expressing cells, Ca2+ dye fluorescence, FDSS; host cell line not named in the record; reference of the full effect not given here; activation, % (no concentration beside the values); 410,000 compounds, 0.12% hits; in the data active = activation above about 50%; inconclusive = about 30% to 50%; inactive = below about 30%; note: 0% is about no effect; the text of the record puts the active cut at 80%
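Calcium fluorescence on an FDSS kinetic reader gave the read-out. Tet-induced TRPML1-DL cells were plated overnight, dye-loaded (Ca8 with quencher, 45-90 min, room temperature, dark), then read 110 s after compound addition, and again 110 s after 4uM final 54-4 (EC80).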
D2 ag – Beta-Arrestin HTS for Positive Allosteric Modulators of the Human D2 Dopamine Receptor: Agonists; D(2) dopamine receptor (Homo sapiens), P14416; DiscoveRx PathHunter D2 beta-arrestin, luminescence, 90 min; 100% = 57 uM dopamine signal; activation, % (test concentration not listed); 360,000 compounds, 0.084% hits; AID 624465, 2012; in the data active = activation above about 40%; inconclusive = about 15% to 40%; inactive = below about 15%; note: compound concentration not given in the record; the text of the record calls up to 30% inactive
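DiscoveRx PathHunter D2 beta-arrestin cells (2,100/well) attached overnight, then compound-stimulated 90 min at 37 C in HBSS/10 mM HEPES/0.1% Tween-20 buffer; beta-galactosidase complementation read by luminescence after 1 h at ambient temperature. Dopamine 57 uM final (EC100) as control.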
D2 PAM – Beta-Arrestin HTS for Positive Allosteric Modulators of the Human D2 Dopamine Receptor: Potentiators | D(2) dopamine receptor (Homo sapiens), P14416 | 360,000 compounds, 0.23% hits | potentiation, % (no concentration beside the values) | DiscoveRx D2 beta-arrestin cells, luminescence, 90 min; 100% = 57 uM dopamine signal; active = potentiation of 50% or more; inconclusive = 30% to 50%; inactive = 30% or less;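 note: compound concentration not given in the record; tested on top of an EC20 dose of dopamine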
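PathHunter beta-arrestin assay in DiscoveRx D2 cells. Compounds were added with an EC20 of dopamine (50 nM final) for 90 min at 37 deg C. Luminescence was read 1 h after detection reagent, with 57 uM dopamine as the EC100 control.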
CtBP-E1A blk – qHTS Assay for Inhibitors of the CtBP/E1A Interaction; AlphaScreen GST-E1A/His-CtBP binding, 1536-well; hits give low values; control for the full effect not named in the record; activity change, % (concentration not given with the values); 340,000 compounds, 0.49% hits; in the data active means activity change below about -65%; inconclusive means about -30% to -65%; inactive means above about -30%; note: % is set by controls: 0 for no effect and ±100 for the full control effect
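AlphaScreen with 125 nM GST-E1A and 125 nM His-CtBP (5X stocks) in Tris pH 8.0, 300 mM NaCl, BSA, Tween 20, TCEP. Compounds preincubated 2 h at 37 deg C, then glutathione donor/nickel acceptor beads added for 1 h at 37 deg C in dark.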
An asterisk follows results filed as active; ? = inconclusive; . = no result given; & = joins results of further samples; [ ] = dose if it differs, or a comment.

Start of the data: the first three entries, ahead of the listing:
SMILES	PINK1 modulator	Six1-Eya2 blk	TRPML1 ag	D2 ag	D2 PAM	CtBP-E1A blk
O=C(Nc1ccc(NC(=O)c2ccco2)c(Cl)c1)c1ccc2c(c1)OCCO2	3.4%	-3	-0.4	0.8	3	1
CCOc1ccc(N=C(NN)c2ccc3ccccc3n2)cc1	-0.7%	13	2.3	-3.2	9	-23
COc1cccc(Nc2ncc(C#N)c(N)n2)c1	-1.6%	9	0.2	-0.6	-3	7

All compounds of this part, repeating the preview:
SMILES	PINK1 modulator	Six1-Eya2 blk	TRPML1 ag	D2 ag	D2 PAM	CtBP-E1A blk
O=C(Nc1ccc(NC(=O)c2ccco2)c(Cl)c1)c1ccc2c(c1)OCCO2	3.4%	-3	-0.4	0.8	3	1
CCOc1ccc(N=C(NN)c2ccc3ccccc3n2)cc1	-0.7%	13	2.3	-3.2	9	-23
COc1cccc(Nc2ncc(C#N)c(N)n2)c1	-1.6%	9	0.2	-0.6	-3	7
O=C(c1ccc(CS(=O)(=O)c2ccc(Br)cc2)o1)N1CCN(c2ccccn2)CC1	3.3%	8	1.5	-1.7	2	-22
CCCCn1c(N)c(N(CC(C)C)C(=O)C2CC(=O)N(c3ccc4c(c3)OCCO4)C2)c(=O)[nH]c1=O (stereo not given)	-0.2%	12	0.1	-7.2	-6	-3
Clc1ccc(CSc2nnc(NC3=NCCCCC3)s2)cc1	1.4%	13	1.8	-1.1	-8	6
O=C(c1ccccc1)c1cc2ccccc2o1	4.8%	0	1.7	-0.8	-20	6
CCN1C(=O)C(CC(=O)NC2CCCCC2)N(CC)C1=O (stereo not given)	-2.2%	1	1.7	-0.3	-17	-10
O=C(COC(=O)c1ccccn1)c1ccc(Br)cc1	-1.8%[38.3 µM]	?	-1.0	-3.4	-12	?
CN1CCN(c2ccc(CNC(=O)c3ccc(-c4ccnn4C)c4ccoc34)cc2)CC1	1.2%	?	-0.3	-5.4	-19	?
CC(C)c1nc2oc3c(N4CCNCC4)ncnc3c2c2c1CCC2	1.3%	-1	.	-2.6	3	1
CC(C)CC1C(=O)N(Cc2cn(Cc3ccco3)nn2)CCS(=O)(=O)N1Cc1ccc(-c2ccc(Cl)cc2)cc1 (stereo not given)	-1.8%	-6	0.9	-2.9	-5	-7
CC(=O)N1C[C@H]2CON(C)[C@H]2C[C@H]1c1ccc(-c2cccnc2)cc1	0.9%	1	-0.4	-8.1	1	2
Clc1ccc(-c2noc(CN3CCCC3)n2)cc1	1.5%	1	-0.8	-0.7	-7	5
CN1C(=O)C(O)(CC(=O)c2ccc3c(c2)OCO3)c2ccccc21 (stereo not given)	?	0	0.8	1.0	-7	-16

Ordered by the number under Six1-Eya2 blk (low to high): some entries from above
canonical_smiles	Six1-Eya2 blk	D2 ag	D2 PAM	CtBP-E1A blk
COc1cccc(Nc2ncc(C#N)c(N)n2)c1	9	-0.6	-3	7
CCCCn1c(N)c(N(CC(C)C)C(=O)C2CC(=O)N(c3ccc4c(c3)OCCO4)C2)c(=O)[nH]c1=O (stereo not given)	12	-7.2	-6	-3
CCOc1ccc(N=C(NN)c2ccc3ccccc3n2)cc1	13	-3.2	9	-23

The listing continues:
SMILES	PINK1 modulator	Six1-Eya2 blk	TRPML1 ag	D2 ag	D2 PAM	CtBP-E1A blk
O=C(Nc1nnc(CCS(=O)(=O)c2ccc(Br)cc2)s1)c1ccc([N+](=O)[O-])cc1	-0.6%	5	0.2	-0.1	8	2
CCOC(=O)N1CCN(S(=O)(=O)N2CCCC(C(=O)NCc3ccccc3OCC)C2)CC1 (stereo not given)	3.4%	7	-0.5	-2.1	-13	-5
O=C(CCCCC(=O)Nc1ccc(F)cc1F)Nc1ccc(F)cc1F	3.1%	1	-0.5	1.0	-13	3
CCCCNC(=O)/C(C#N)=C/c1ccc2c(c1)OCCO2	-1.4%	2	0.8	-1.8	-6	-3
CN1C(=O)c2ccccc2N(C)C1c1cccc(O)c1 (stereo not given)	2.6%	10	-0.2	-3.5	-2	4
O=C(NC1CCCCC1)c1c(O)nc2sccn2c1=O	0.9%	4	1.6	0.5	-6	3
Cc1nnc(Sc2nc3c(c(=O)[nH]c(=O)n3C)n2CCc2ccccc2)s1	0.9%	4	-0.5	5.2	-1	4
Cc1ccc(S(=O)(=O)N(C)C)cc1NC(=S)N1CCCCC1CO (stereo not given)	-1.2%	7	-0.8	-3.1	-9	11
CCC(C)N1C(=O)C2C(C(=O)Nc3cccc(OC)c3)C3C=CC2(O3)C1C(=O)NC1CCCCC1C (stereo not given)	-1.2%	-4	0.0	-2.1	-20	-1
Clc1ccc(CSc2ncnc3nc[nH]c23)cc1	2.7%	-1	0.6	4.6	-3	.
COc1cc(/C=N/N=C(N)N)ccc1OCc1ccc(Cl)cc1	-2.5%	-5	6.6	-1.6	0	-12
O=C(NCCCn1ccnc1)/C(=C\c1ccccc1F)NC(=O)c1ccccc1	-1.1%	2	0.6	-1.0	-8	1
CCN(CCNCC(O)COc1ccccc1C(C)C)c1cccc(C)c1 (stereo not given)	-2.0%	-23	1.6	3.5	4	-26
CCN1C(=O)c2ccccc2S(=O)(=O)c2ccc(C(=O)NC(C)C)cc21	-0.7%	2	-0.3	-3.0	-13	9
O=C(O)c1ccc(CSc2n[nH]c(-c3ccco3)n2)cc1	-1.6%	-16	-0.3	-1.1	-2	-8
Cc1ccc(NC(=O)C(C)N2C(=O)C3CC=C(Cl)CC3C2=O)cc1 (stereo not given)	-1.4%	15	-0.7	-1.6	-22	5
Cc1cc(C)cc(C(=O)NC(CC(N)=O)c2ccc(NC3CCCCC3)c([N+](=O)[O-])c2)c1 (stereo not given)	15%	-8	-0.4	-4.3	-21	-14
Cc1cc(C(=O)CCl)c(C)n1-c1ccon1	-0.7%	-6	-0.2	-0.5	-4	-12
Cc1cc(OCCCn2ccnc2)ccc1[N+](=O)[O-]	0.8%	0	-0.9	-0.7	-9	3
CCCCN(C(=O)CN1C(=O)C2CCCCC2C1=O)c1c(N)n(Cc2ccccc2)c(=O)[nH]c1=O (stereo not given)	1.5%	12	0.3	-3.9	-12	2
COc1ccc(C(c2nnnn2C2CCCCC2)N2CCN(c3ccccc3F)CC2)cc1 (stereo not given)	1.8%	-7	0.1	-4.8	-10	-15
O=C1CCCc2[nH]c(-c3ccccc3)nc21	-0.8%	-4	-0.5	2.9	0	2
CC(C)[C@H](NC(=O)c1ccccc1Cl)C(=O)OCc1cc([N+](=O)[O-])cc2c1OCOC2	3.2%	0	3.0	1.4	-7	-12
CCC(C)[C@H](NC(=O)N1CC(=O)Nc2ccccc21)C(=O)N1CCC[C@@H]1C(=O)O (stereo not given in full)	1.2%	3	.	2.9	-22	6
COc1ccc(OC)c(CNC(=O)CCS(=O)(=O)c2ccc3c(c2)oc(=O)n3C)c1	-0.5%&0.9%	2	-0.2&-0.5	3.2	-9	9
COc1ccc(-c2nn(-c3ccccc3)cc2CNC(=O)c2cccc([N+](=O)[O-])c2)cc1	2.0%	-1	0.5	1.2	-5	-14
COc1ccc(NC(=O)CSc2ncnc3c2cnn3Cc2ccccc2)cc1OC	11%	-2	0.9	-2.0	3	-10
Cc1ccc(-c2nc(SCC(=O)Nc3cc(S(=O)(=O)N4CCCCC4)ccc3Cl)n[nH]2)cc1	32µM*	-22	4.8	1.3	-3	-14
COC(=O)c1sc(=S)n(Cc2ccccc2)c1C	4.5%	-16	0.4	-2.0	0	-12
O=S(=O)(N1CCCCC1)N1CCN(CC(O)COc2ccc3cc(Br)ccc3c2)CC1 (stereo not given)	0.4%[38.3 µM]	-2	1.4	-0.8	7	2
COC(=O)c1ccc(NC(=O)COc2ccc(S(=O)(=O)NC(C)(C)C)cc2)cc1	?	-2	0.6	-3.7	-6	-3
O=C(O)c1[nH]c2ccccc2c1C(c1cccc(O)c1)c1c(C(=O)O)[nH]c2ccccc12	-2.9%	-3	0.8	2.6	-5	0
CC1(C)C=C(c2ccc(C=O)s2)CC(C)(C)N1	0.3%	3	-0.4	-1.0	-13	7
O=CN1CCN(C(=O)c2cccc3c2-c2ccccc2C3=O)CC1	-2.2%	-3	1.3	9.3	1	1
CCCCCn1c(=O)c(-c2nc3ccccc3[nH]2)c(O)c2ccccc21	15%	2	-0.3	0.8	2	8
CC(=O)c1cn(C)c(=O)[nH]c1=O	0.3%	0	0.4	4.2	-5	9
Cc1ccc(NC(=O)Nc2nc3ccc(S(C)(=O)=O)cc3s2)cc1	?	2	0.3	-1.3	-1	-2
Cc1ccc2[nH]c(=O)c(CN(Cc3ccccc3)C(=S)NCCCN(C)C)cc2c1	-1.2%	0	-0.4	-1.5	-7	-10
CCCN(C(=O)Cc1nc(N)n[nH]1)C1(C(=O)Nc2ccccc2C)CCCCC1	-1.9%	-24	0.9	-0.1	-4	-30
Cc1ccc(Cn2c(=N)c(S(=O)(=O)c3ccc(Br)cc3)cc3c(=O)n4ccccc4nc32)cc1	2.4%	7	0.0	3.6	0	.
COc1ccc(S(=O)(=O)NCCc2cn3nc(C)c(C)nc3n2)cc1F	0.6%	-5	-0.1	-2.4	-6	-2
COc1ccc(N2C=C3C(=O)C(C)(OC(=O)CCc4ccccc4)C(=O)C=C3C=C2c2ccc(C#N)cc2)cc1 (stereo not given)	0.9%	-25	3.2	5.8	18	-24
Cc1ccc(SCc2[nH]nc3c2C2(C(=O)Nc4ccc([N+](=O)[O-])cc42)C(C#N)=C(N)O3)cc1 (stereo not given)	6.4%[38.3 µM]	-6	-0.4	0.4	-1	-13
CCc1ccc(NC(=O)CCc2nc3cccnc3n2Cc2ccc(OC)cc2)cc1	2.4%	-1	2.1	2.3	11	-2
CN1C2CCC1CC(N(CCc1ccccc1)C(=O)c1ccc(Cl)cc1)C2 (stereo not given)	-3.0%	10	1.5	-0.5	-11	2
O=C(CNC(=O)c1ccccc1F)OCc1nc2ccccc2s1	0.2%	6	-1.2	-3.1	-11	1
CS(=O)(=O)c1ccc(Cl)c(NC(=O)COC(=O)CNC(=O)c2cccs2)c1	-2.2%	0	-0.6	1.7	-28	14
O=C(OCC(=O)N1CCCCCC1)c1cccnc1Cl	0.9%	6	1.3	5.9	-1	-1
Cn1c(CNS(=O)(=O)c2cccc(Cl)c2)cc(=O)n(C)c1=O	2.2%	1	-0.3	-4.4	-10	-6
CCNc1nc(NCC)nc(Oc2ccc(N)cc2)n1	3.4%	0	-0.3	2.6	8	16

Single values from the results shown.
Under TRPML1 ag, O=C(c1ccc(CS(=O)(=O)c2ccc(Br)cc2)o1)N1CCN(c2ccccn2)CC1 reads 1.5
Under D2 ag, O=C(NCCCn1ccnc1)/C(=C\c1ccccc1F)NC(=O)c1ccccc1 reads -1.0

Screens: PubChem BioAssay, National Center for Advancing Translational Sciences (NCATS)
